# KCNQ2 pot: potentiators of rat KCNQ2 potassium channel; O88943; CHO-K1 KCNQ2, FluxOR thallium flux fluorescence; hits give high values; B-score at 10 µM; 0.54% of 310,000 active; AID 2239;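 active means fluorescence ratio B-score at least 3 SD of library B-scores, with initial fluorescence B-score within 3 SD, cut at about 5.3 in these data; same plate scores as AID 2156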;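 further: B-score of peak minus minimum over baseline fluorescence ratio after K+ and Tl+ stimulus; positive B-score means potentiation of KCNQ2 with more thallium influx and brighter signal; only the inactives scoring about 0 or higher are listed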
# Target sequence (O88943 whole entry, looked up): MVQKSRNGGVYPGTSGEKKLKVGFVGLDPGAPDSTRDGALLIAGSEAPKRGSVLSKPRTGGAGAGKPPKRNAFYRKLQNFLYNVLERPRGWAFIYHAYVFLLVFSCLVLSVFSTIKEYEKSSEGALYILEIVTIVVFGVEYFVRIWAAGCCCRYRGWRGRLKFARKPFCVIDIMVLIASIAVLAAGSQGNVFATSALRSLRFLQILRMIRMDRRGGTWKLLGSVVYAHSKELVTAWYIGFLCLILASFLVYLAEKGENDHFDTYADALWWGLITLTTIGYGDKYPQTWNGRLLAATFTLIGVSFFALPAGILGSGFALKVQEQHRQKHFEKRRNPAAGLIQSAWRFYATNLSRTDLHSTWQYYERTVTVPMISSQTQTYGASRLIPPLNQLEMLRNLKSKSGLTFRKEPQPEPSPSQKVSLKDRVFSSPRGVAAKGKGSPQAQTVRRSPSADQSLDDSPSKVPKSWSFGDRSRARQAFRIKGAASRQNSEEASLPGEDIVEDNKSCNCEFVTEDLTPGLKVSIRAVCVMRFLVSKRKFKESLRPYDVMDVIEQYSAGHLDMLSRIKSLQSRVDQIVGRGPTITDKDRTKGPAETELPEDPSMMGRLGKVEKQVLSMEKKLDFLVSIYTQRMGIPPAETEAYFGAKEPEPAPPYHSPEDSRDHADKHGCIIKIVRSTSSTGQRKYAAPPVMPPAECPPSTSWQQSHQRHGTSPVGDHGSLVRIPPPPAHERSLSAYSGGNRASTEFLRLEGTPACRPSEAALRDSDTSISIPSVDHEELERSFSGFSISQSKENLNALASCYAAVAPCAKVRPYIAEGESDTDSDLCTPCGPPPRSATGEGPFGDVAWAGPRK
# KCNQ2 pot baseline: also measured in KCNQ2 pot; calls as there; B-score; compound at 10 µM; measured here: initial fluorescence intensity artifact check;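 brightness before thallium and not channel activity; 0 = typical well and far values either way flag optical interference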
# Numbers without * were called inactive. This is a subset. The share of hits here may be higher or lower than overall.
# The line under a structure holds: KCNQ2 pot, KCNQ2 pot baseline
O=C(Nc1cc(F)ccc1F)c1ccc(-n2cncn2)c([N+](=O)[O-])c1
 : 0.45, -0.01
O=C(NC1CCCCC1)c1ccccc1NC(=O)C1CC(=O)N(c2ccc(Cl)cc2)C1 (stereo not drawn)
 : 0.64, 1.14
O=C(Cc1ccccc1)NNC(=O)c1cccs1
 : 0.43, 0.09
O=[N+]([O-])c1cccc(/C=N/n2cnnc2)c1
 : 0.01, -0.41
Cc1ccc(/C=N/NC(=S)NC(C)C)o1
 : 0.08, 0.73
S=C(NCc1ccncc1)NC1CCCC1
 : 0.38, -1.18
O=c1[nH]c2ccccc2c(=O)n1Cc1ccco1
 : 1.01, -1.41
CC(C)(C)OC(=O)CN1c2cccc3cccc(c23)S1(=O)=O
 : 0.1, -1.68
Cc1noc(C)c1S(=O)(=O)Nc1ccc(C(=O)NC2CCCCCC2)cc1
 : 0.15, 1.55
Cn1cnc(S(=O)(=O)N2CCN(C(c3ccccc3)c3ccccc3)CC2)c1
 : 0.11, -1.29
C=CCn1cnc2c(nnn2-c2ccc(Cl)cc2)c1=O
 : 1.16, 0.15
CNCC(O)C(O)C(O)C(O)CO (stereo not drawn)
 : 3.8, -0.25
Cc1ccccc1C(=O)NC1CCN(CC(=O)NCc2cccs2)CC1
 : 0.82, -0.96
O=C(c1cnn(-c2ccccc2)c1)c1ccc2ccccc2c1O
 : 1.67, 0.85
COCCN1C(=O)N[C@@H](c2ccco2)C(C(C)=O)=C1C
 : 0.17, 2.29
CC(C)OC(=O)c1ccc(NC(=O)Cn2c(-c3nonc3N)nc3ccccc32)cc1
 : 1.7, -1.62
CCCCNC(=S)NNC(=O)c1csc2ccccc12
 : 0.02, -0.03
CCC(=O)Nc1cccc(-c2nnc(-c3cccc(NC(=O)CC)c3)o2)c1
 : 1.91, -1.38
CC1Sc2ccc(S(=O)(=O)CCC(=O)Nc3ccccc3Cl)cc2NC1=O (stereo not drawn)
 : 0.32, 0.89
Cc1cc(C)nc(NS(=O)(=O)c2ccc(NC(=O)c3nn(-c4ccccc4)ccc3=O)cc2)n1
 : 1.16, -0.05
CCN(c1ccccc1)S(=O)(=O)c1ccc(Cl)c(C(=O)O)c1
 : 0.09, 0.69
O=C(Nc1ccc(S(=O)(=O)N2CCOCC2)cc1)c1ccc([N+](=O)[O-])cc1Cl
 : 0.24, -1.28
O=C(COc1ccc2c3c(c(=O)oc2c1)CCC3)NC1CCCCC1
 : 1.92, 1.64
COc1ccc(NC(=O)CCCCCN2C(=O)c3ccccc3C2=O)c(OC)c1
 : 0.05, 0.54
O=[N+]([O-])c1ccc(CSc2ncnc3ccccc23)cc1
 : 1.71, -0.89
CSc1nccc(N/N=C/c2ccccc2)n1
 : 0.31, 0.44
COc1ccc(N(CC(=O)N2CCN(Cc3ccc4c(c3)OCO4)CC2)S(=O)(=O)c2ccc(F)cc2)cc1
 : 0.02, 1.59
Cc1cc(C)n(/N=C/c2cc(Cl)cc(Cl)c2O)c(=O)c1
 : 9.78*, 0.62*
CCc1ccccc1-n1c(SCC(=O)N2CCCC2)nnc1-c1ccccn1
 : 0.87, 2.57
COc1ccc2[nH]c(C(=O)O)c(CCNC(C)=O)c2c1
 : 0.77, -2.34
COc1ccc(NC(=O)CSc2c3c(nc4ccccc24)CCC3)c(OC)c1
 : 0.81, -2.76
COc1cccc(OC)c1OCCNCC1COc2ccccc2O1 (stereo not drawn)
 : 0.61, 0.35
O=C(Cn1nnc(-c2ccc(Cl)cc2)n1)NCc1ccco1
 : 0.01, 1.54
Cc1ccc(C)c(NC(=O)CCc2nnc3ccc(N4CCCC4)nn23)c1
 : 0.35, 0.45
CCn1cc(Br)c(C(=O)Nc2nccs2)n1
 : 1.43, -0.62
CCOC(=O)c1cc(=O)cc(C(=O)OCC)o1
 : 1.47, -0.05
CCCCCNC(=O)c1cccc(S(=O)(=O)N2CC3(C)CC2CC(C)(C)C3)c1 (stereo not drawn)
 : 2.23, -0.34
Cc1cccc(NC(=O)c2cnc3sccn3c2=O)c1
 : 0.91, -1.55
Cc1cc(NC(=O)CSc2ccc(Cl)cc2)no1
 : 1.63, 0.27
CCCCSCCCNC(=O)C1CCC(CNS(=O)(=O)c2ccccc2)CC1 (stereo not drawn)
 : 1.56, -0.06
CC1CCN(c2ccc(-c3ccc(NC(=O)c4ccco4)cc3)nn2)CC1
 : 0.11, 0.79
O=C(O)CCC(=O)Nc1ccc(S(=O)(=O)c2ccc(NC(=O)CCC(=O)O)cc2)cc1
 : 1.8, -2.6
CCc1cc(C(=O)N/N=C/c2c(C)[nH]c3ccccc23)cs1
 : 0.98, 0.03
O=C(CCCn1c(=S)[nH]c2ccccc2c1=O)N1CCOCC1
 : 0.32, -1.73
CCNC(=O)NC1c2ccccc2CSc2ccccc21 (stereo not drawn)
 : 0.35, -0.93
Cc1cc(C)cc(OCC(=O)OCC(=O)c2cc(C)n(C3CC3)c2C)c1
 : 0.99, 2.44
O=C(O)c1ccc(Nc2ncnc3scc(-c4ccccc4)c23)cc1
 : 1.85, -0.23
CCC1(C)N([O-])C(C)=C(c2ccccc2)[N+]1=O (stereo not drawn)
 : 1.89, 0.55
CC1CN(C(=S)Nc2ccc(S(N)(=O)=O)cc2)CC(C)O1 (stereo not drawn)
 : 1.99, -0.51
CCN(CC)CCn1c(SCC(=O)NCCC2=CCCCC2)nc2c(sc3ccccc32)c1=O
 : 0.26, -1.45
CC(=O)/C(=N\Nc1ccc(C)cc1)N1CCOCC1
 : 0.37, -0.56
Cc1cc(C(=O)COC(=O)c2ccncc2)c(C)n1Cc1ccco1
 : 2.06, -0.13
OCc1nc2ccccc2n1Cc1c(F)cccc1Cl
 : 0.07, 1.47
CCOc1ccc(CCNC(=O)COC(=O)Cc2ccc(F)cc2)cc1OCC
 : 2.2, -0.62
CCOC(=O)CC(=O)NC(CC(=O)OC)c1ccc(Br)cc1 (stereo not drawn)
 : 0.02, 0.2
O=C(CN1C(=O)c2cccnc2Oc2ccc(Cl)cc21)Nc1ccc(F)cc1
 : 0.51, 0.32
Cc1cc(/C=C(\C#N)C(=O)Nc2ccc(Cl)cc2)c(C)n1-c1ccc(N2CCOCC2)c([N+](=O)[O-])c1
 : 0.96, -1.07
CCOCCCNC(=O)CCS(=O)(=O)Cc1ccc(C)cc1
 : 0.52, 0.18
CCOc1cc(C2C(C(=O)N3CCCCC3)=C(C)NC3=C2C(=O)CC(C)(C)C3)ccc1O (stereo not drawn)
 : 1.07, 0.06
Cc1ccc(S(=O)(=O)N2CCCC2CNC(=O)c2ccccc2)cc1 (stereo not drawn)
 : 0.14, -3.4

# (next part)
molecule	KCNQ2 pot	KCNQ2 pot baseline
CN(C1(C)CCS(=O)(=O)C1)S(=O)(=O)c1ccc(F)cc1 (stereo not drawn)	0.52	-0.57
CCc1ccc(NC(=O)CC2C(=O)N(c3ccc(OC)cc3)C(=O)N2CCOC)cc1 (stereo not drawn)	0.84	0.36
COc1cccc(N(CC(=O)NC2CCCC2)C(=O)Cn2nnc(-c3ccc(C)o3)n2)c1	0.88	1.24
COc1cc(CN2CCN(c3cccc(C)c3C)CC2)cc(OC)c1O	2.1	0.57
O=c1c2ccccc2oc2ccc(Oc3ccccc3)cc12	0.01	-0.94
Cc1csc(=O)n1CC(=O)OCC(=O)N(CC(C)C)c1c(N)n(Cc2ccccc2)c(=O)[nH]c1=O	0.6	0.34
CCC(C)(C)C1CCc2[nH]nc(C(=O)NN)c2C1 (stereo not drawn)	1.09	0.8
Cc1cc(C)c2c(-n3cccc3)nn(CC#N)c2n1	1.43	-0.72
COc1ccc(COc2ccccc2C(N)=O)cc1F	0.21	2.16
O=C(Nc1ccc(N2CCOCC2)cc1)c1ccc(COc2ccccc2)cc1	0.24	-0.2
CCOC(=O)N1CCC(NS(=O)(=O)c2cc3c(cc2Cl)NC(=O)CO3)CC1	1.17	-1.52
CN(C)S(=O)(=O)c1cccc(NC(=O)COC(=O)COc2ccc(Br)cc2)c1	0.48	-0.19
Cn1c(SCC2CCCO2)nnc1-c1cccc([N+](=O)[O-])c1 (stereo not drawn)	0.44	1.57
CCCc1nc2ccccc2c(C(=O)OCC(=O)NCc2ccco2)c1CC	0.67	-2.56
CN(CC(=O)Nc1c(Cl)cccc1Cl)C(=O)CC1Sc2ccccc2NC1=O (stereo not drawn)	1.04	-1.02

# Molecules above containing a furan ring, fused or not, in the order listed:
molecule	KCNQ2 pot	KCNQ2 pot baseline
Cc1ccc(/C=N/NC(=S)NC(C)C)o1	0.08	0.73
O=c1[nH]c2ccccc2c(=O)n1Cc1ccco1	1.01	-1.41
COCCN1C(=O)N[C@@H](c2ccco2)C(C(C)=O)=C1C	0.17	2.29
O=C(Cn1nnc(-c2ccc(Cl)cc2)n1)NCc1ccco1	0.01	1.54
CC1CCN(c2ccc(-c3ccc(NC(=O)c4ccco4)cc3)nn2)CC1	0.11	0.79
Cc1cc(C(=O)COC(=O)c2ccncc2)c(C)n1Cc1ccco1	2.06	-0.13
COc1cccc(N(CC(=O)NC2CCCC2)C(=O)Cn2nnc(-c3ccc(C)o3)n2)c1	0.88	1.24
CCCc1nc2ccccc2c(C(=O)OCC(=O)NCc2ccco2)c1CC	0.67	-2.56

# Remaining list, next part.
molecule	KCNQ2 pot	KCNQ2 pot baseline
O=C(NCC1CCCO1)/C(=C\c1ccco1)NC(=O)c1ccc(Cl)cc1 (stereo not drawn)	1.02	0.79
CCCCCCC(=O)Nc1nc(C)c(-c2csc(Nc3cc(Cl)ccc3C)n2)s1	0.41	2
O=C(O)c1ccccc1C(=O)OCCCc1ccncc1	0.08	-0.22
COc1ccc(OC)c(NC(=O)COc2coc(CN3CCCc4ccccc43)cc2=O)c1	0.07	0.43
COc1ccc2nc(NC(=O)CSc3nc4cccnc4n3C)sc2c1	0.45	2.59
CCOC(=O)NC(C(F)(F)F)(C(F)(F)F)P(=O)(c1ccccc1)c1ccccc1	10.8*	-0.62*
CC(C)C[C@H]1CN=C(Nc2ccccc2)N1CC1CCCC1	0.47	-0.63
CN1CCc2c(sc3c2c(=O)n(-c2ccc(Cl)cc2)c2nncn32)C1	0.23	-0.19
COc1ccc(C2=CC(=O)C=CC2=O)cc1	1.32	-2
Cc1cccc2nc(C(F)(F)F)nc(=O)n12	0.52	0.12
Cc1ccc(NC(=O)COC(=O)/C=C/c2ccco2)cc1S(=O)(=O)N(C)C	0.59	1.62
Cc1cc(C)n(C(=O)CNC(=O)c2cccc(F)c2)n1	2.33	1.16
COc1ccc(CC(=O)NNC(=O)c2c(-c3ccccc3Cl)noc2C)cc1OC	0.54	-0.64
CCCCN(CCCC)S(=O)(=O)c1ccc(C(=O)Nc2nnc(CSC)o2)cc1	1.71	-0.9
CCOC(=O)CC1C(=O)NCCN1S(=O)(=O)c1ccc(F)cc1 (stereo not drawn)	2.61	-0.87
CC1(C)NC(=O)N(CC(O)CN(c2ccccc2)S(=O)(=O)c2ccccc2[N+](=O)[O-])C1=O (stereo not drawn)	1.17	-0.24
COc1ccc(S(=O)(=O)N(C)CC(=O)Nc2ccc3c(c2)OCCO3)cc1OC	1.41	1.57
COc1ccc(/C=C2/SC(=S)N(CCC(=O)N3CCN(C)CC3)C2=O)cc1	0.89	1
CCO[C@@H]1OC(C(=O)N2CCN(C)CC2)=C[C@H](C(C)(C)C)[C@H]1CCCO	0.01	-0.02
O=C(NNS(=O)(=O)c1ccccc1[N+](=O)[O-])c1cccc([N+](=O)[O-])c1	0.88	0.78
CC1CCCC(NC(=O)c2ccncc2)C1C (stereo not drawn)	0.26	-0.42
CN1CCN(S(=O)(=O)c2ccc(N3CCN(C(=O)c4ccccc4)CC3)nc2)CC1	0.33	2
CCCn1nc(Oc2nc(NCC)nc(NC(C)C)n2)ccc1=O	0.08	-0.72
CCOc1ccc(NC(=S)NN2CCN(C)CC2)cc1	1.2	0.61
O=C(COc1ccc(Cl)cc1)OCC(=O)N1CCCC1	0.23	0.03
CN(CC(=O)Nc1ccc(F)cc1)C(=O)COC(=O)CNC(=O)c1sc2ccccc2c1Cl	0.02	-0.31
Cc1ccc(C2=NC3(CCCC3)N=C2SCC(=O)Nc2ccc3c(c2)OCCO3)cc1	0.18	1.24
Fc1cccc(NC(=S)NCc2ccc(Cl)cc2)c1	1.36	-0.32
O=C(NCCc1ccccc1)C(=O)NCC1OCCN1S(=O)(=O)c1ccccc1 (stereo not drawn)	0.01	2.58
Cc1cc(/C=N/NC(=O)C(=O)NCc2ccccn2)c(C)n1-c1cccc(Br)c1	0.26	-1.01
COc1ccc(NC(=O)CSc2nc3c(c(=O)n2-c2ccc(F)cc2)SCC3)cc1	0.15	-0.91
Cc1c(Cl)c([N+](=O)[O-])nn1CCCC(=O)Nc1cccc(Cl)c1	0.29	-1.75
O=C(NNC(=O)c1cccnc1SCc1cccc([N+](=O)[O-])c1)c1ccc(F)cc1	2.23	-0.4
C#CCOCCOCCOCCNc1nc(N2CCN(C(=O)[C@H]([C@@H](C)CC)n3cc([C@@H](N)CC(C)C)nn3)CC2)nc(N2CCN(C(=O)[C@H](CCCCN)n3cc([C@@H](N)CO)nn3)CC2)n1	0.15	0.67
O=C(CCSCc1ccccc1Cl)NCc1cccs1	0.16	-0.09
CNC(=O)c1ccc(NC(=O)Cc2ccc(S(=O)(=O)N3CCOCC3)s2)cc1	0.92	-0.69
COC(=O)c1ccc(COc2ccc(C(=O)c3ccccc3)cc2)o1	1.15	2.21
N#C/C(=C(/O)COC(=O)COc1cccc(Br)c1)c1nc2ccccc2[nH]1	1.21	-0.76
Cn1cc([N+](=O)[O-])c(C(=O)Nc2ccc(C3CCCCC3)cc2)n1	0.56	2.63
O=C1CSc2ccc(C(=O)N3CCN(c4ccccn4)CC3)cc2N1	0.86	0.53
